NPYLR7 agonist: mosquito NPYLR7 agonism; HEK293T NPYLR7/Galpha15, GCaMP6s calcium fluorescence; activation, % at 10 µM; actives 0.15% (n = 270,000); AID 1259423; in the data active = activation above about 40%;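 note: 0% = vehicle and 100% = reference agonist at the receptor; some compounds past the cut are filed as inactive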
NPYLR7 agonist max-min: recorded beside NPYLR7 agonist, whose call it bears; activation, %; measured here: Max-Min RFU normalised activation; some inactives read as strong as hits;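 span of the calcium signal over five minutes; 0% = vehicle and 100% = native peptide agonist; compound fluorescence can raise it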
An asterisk follows results filed as active; & = joins results of further samples.

SMILES | NPYLR7 agonist | NPYLR7 agonist max-min
Cc1ccccc1/C(=C1\OC(=O)c2ccccc21)[N+](=O)[O-] | 1 | 13
Cc1cccc(C(=O)NC(C(=O)N2CCCCC2)C2CCN(C(=O)c3ccc(C(F)(F)F)cc3)CC2)c1 (stereo unspecified) | 3 | 5
CC1Cc2nc(SCC(=O)NCc3ccc(F)cc3)n(C)c(=O)c2S1 (stereo unspecified) | -3 | -7
C=C(C)Cn1c(=O)c2c(nc3n2CCCN3c2cccc(Cl)c2C)n(C)c1=O | 1 | -3
Cc1ccc(CSc2nc3c(c(=O)n2Cc2ccccc2)SCC3)cc1 | -14 | -14
O=C(c1ccc2c(c1)OCO2)N(Cc1ccccc1)Cc1c(-c2ccccc2)noc1N1CCCC1 | 3 | 4
Cc1ccc2nc(NC(=O)CSc3nnc4ccc(-c5ccccn5)nn34)sc2c1 | -10 | -8
COc1cc(C)c(C)cc1S(=O)(=O)NCCc1csc2nc(-c3cccs3)nn12 | 6 | 3
COc1ccc(Cl)cc1C(=O)Nc1ccnc(C(=O)N(C)C)c1 | -2 | -2
O=[N+]([O-])c1cc2c(c(COc3ccc(Cl)c(Cl)c3)c1)OCOC2 | 4 | 2
COC(=O)c1ccccc1NC(=O)N1CCC2(CC1)CNC(=O)C2 | -5 | 17
Cc1cc(N2CCN(C(=O)Nc3nc(-c4ccccc4)ns3)CC2)cc(C)n1 | 13 | 9
Cc1ccc2c(c1)C(N1CCCC1=O)CC(c1ccco1)N2 (stereo unspecified) | -6 | 10
CCOCCCn1ccnc1-c1cc2ccccc2n(C)c1=O | 5 | 3
CCOC(=O)C1(CCc2ccccc2)CCN(C(=O)c2cnc(C)cn2)CC1 | 15 | 12
CCC(NC(=O)NCc1cccnc1N(C)C)c1nc(C)cs1 (stereo unspecified) | 7 | 1
Cc1ncc(CN2CCc3ccc(NC(=O)Cc4ccccc4F)cc3C2)s1 | -13 | -13
CCOC(=O)CCNC(=O)N1CCN(Cc2nnnn2-c2ccc(F)c(F)c2)CC1 | 0 | 0
CC(c1ccccc1)N(Cc1cccc(F)c1)Cc1nc(C(=O)N2CCOCC2)co1 (stereo unspecified) | 5 | 14
O=C1C(c2ccccc2Br)=Nc2ccccc21 | 0 | -4
O=C(NCCc1ccc(Cl)cc1Cl)c1ccc(CSc2nc(Cl)cc(N3CCN(c4cccc(C(F)(F)F)c4)CC3)n2)cc1 | 15 | 23
O=C(CCCn1nc(-c2cccs2)ccc1=O)Nc1ccc(Oc2ccccc2)cc1 | 1 | 6
Cc1ccc(Cn2c(CN3CCC(CN)C3)nc3ccccc32)cc1 (stereo unspecified) | 8 | 3
Cc1nc(-c2ccc(Cl)cc2)nc(N2CCN(C(=O)c3cccc4ccccc34)CC2)c1C | -6 | -2
CCN(CC(C)C#N)Cn1nc(-c2ccccc2)oc1=O (stereo unspecified) | 6 | 4
SMILES | NPYLR7 agonist | NPYLR7 agonist max-min
CCCCN(Cc1cccn1Cc1ccccc1C)C(=O)CC(C)C | 14 | 17
COCCN(CCC#N)C(=O)c1nn(-c2ccccc2F)c(C)cc1=O | 3 | 1
O=C(NCCN1CCOCC1)c1coc(CN(Cc2cccc(Cl)c2)Cc2cccc(C(F)(F)F)c2)n1 | 18 | 15
Cc1ccc(C)c(Cn2ccnc2CN(C(=O)c2ccc(Cl)cc2)C2CC2)c1 | 20 | 27
CN1CCC(Cc2noc(-c3cccc(Oc4ncccn4)c3)n2)CC1 | 3 | -1
CCOc1ccc(-n2c(SC(CC)C(=O)OC)nc3c(c2=O)SCC3)cc1 (stereo unspecified) | 0 | 54
CC1CCCC(C)N1C(=O)c1scc2c1OCCO2 (stereo unspecified) | -1 | -4
Cc1nn(CCCC(=O)NC(C)C)c(=O)c2cc3sccc3n12 | 1 | 0
Cc1ccccc1C1c2ccsc2CCN1CC(=O)N1CCN(C(=O)CC(C)(C)C)C(C)C1 (stereo unspecified) | 8 | 4
CCN(CC)S(=O)(=O)c1ccc2c(c1)nc(SCc1ccc(C(F)(F)F)cc1C(F)(F)F)n2CC1CCCO1 (stereo unspecified) | 24 | 16
NC(=O)C1(C(=O)N(CCN2CCCCC2)CC2CCCN(C3CCCC3)C2)CC1 (stereo unspecified) | 4 | 3
CCOc1ccc(NC(=O)CSc2nnc(NC(=O)CC34CC5CC(CC(C5)C3)C4)s2)cc1 | -5 | 5
C=CCOCC(O)CN(CCOC)Cc1nc2sc(C(C)C)cc2c(=O)[nH]1 (stereo unspecified) | 13 | 13
Brc1ccc(-c2noc(-c3ccncc3)n2)o1 | 0 | -4
CCOC(=O)C(NC(=O)C1CCC1)c1cccc(O)c1 (stereo unspecified) | -5 | 427
Cc1cc(CNc2nc3nonc3nc2N2CCCCCC2)nn1C | 6 | 0
CN(C)CCNC(=O)c1ccc(CSc2nc(N(C)C)cc(C(F)(F)F)n2)cc1 | 6 | 8
CN(C)CCCN(C(=O)c1cccs1)c1nc2ccc(F)cc2s1 | 1 | 0
CCCNC(=O)Cn1nc2c(c1NC(=O)c1cnccn1)CSC2 | -9 | -12
CN(C)C(=O)Cc1nc(CN2CCN(CCO)CC2)cs1 | 4 | 2
COc1cccc(COC(CN2CCN(C(=O)C(C)Oc3ccccc3)CC2)c2ccc(Cl)cc2)c1 (stereo unspecified) | -2 | -1
COc1nccnc1N1CCC(CO)(CCc2ccccc2)CC1 | 25 | 18
CCN(C)S(=O)(=O)NCCOC1CCCCC1C (stereo unspecified) | 1 | -3
CC(=O)NCC1=CCCN(C(C)C(=O)Nc2nncs2)C1 (stereo unspecified) | 4 | 3
CCOC(=O)CSc1ccc2nnc(-c3cccs3)n2n1 | -3 | -3

Of the compounds above, eight contain a Cl atom:
SMILES | NPYLR7 agonist | NPYLR7 agonist max-min
C=C(C)Cn1c(=O)c2c(nc3n2CCCN3c2cccc(Cl)c2C)n(C)c1=O | 1 | -3
COc1ccc(Cl)cc1C(=O)Nc1ccnc(C(=O)N(C)C)c1 | -2 | -2
O=[N+]([O-])c1cc2c(c(COc3ccc(Cl)c(Cl)c3)c1)OCOC2 | 4 | 2
O=C(NCCc1ccc(Cl)cc1Cl)c1ccc(CSc2nc(Cl)cc(N3CCN(c4cccc(C(F)(F)F)c4)CC3)n2)cc1 | 15 | 23
Cc1nc(-c2ccc(Cl)cc2)nc(N2CCN(C(=O)c3cccc4ccccc34)CC2)c1C | -6 | -2
O=C(NCCN1CCOCC1)c1coc(CN(Cc2cccc(Cl)c2)Cc2cccc(C(F)(F)F)c2)n1 | 18 | 15
Cc1ccc(C)c(Cn2ccnc2CN(C(=O)c2ccc(Cl)cc2)C2CC2)c1 | 20 | 27
COc1cccc(COC(CN2CCN(C(=O)C(C)Oc3ccccc3)CC2)c2ccc(Cl)cc2)c1 (stereo unspecified) | -2 | -1

Other results follow.
SMILES | NPYLR7 agonist | NPYLR7 agonist max-min
O=C1C2C3C=CC(C3)C2C(=O)N1c1n[nH]c(CCc2ccccc2)n1 (stereo unspecified) | -4 | -4
CCC(CC)NC1C=CS(=O)(=O)C1 (stereo unspecified) | 16 | -2
CC1CN(C)CCN1CC(=O)NCc1cc(Br)cs1 (stereo unspecified) | 10 | 10
CCn1ncc(Cl)c1C(=O)NC(C)c1ccccc1 (stereo unspecified) | 7 | 11
O=C(NNC(=O)C1(c2cccc(Br)c2)CC1)c1ccccc1Cl | 9 | 4
FC(F)c1nnc(N2CCCC2)s1 | 3 | 0
CCN1CCN(CCCNS(=O)(=O)c2cc(Br)c(Br)s2)CC1 | 2 | 0
CC(CCc1ccco1)Nc1nc(-c2ccncc2)nc2c1CNC2 (stereo unspecified) | 2 | 2
CCOC(=O)c1c(-c2ccc(OC)c(OC)c2)csc1NC(=O)CNC(C)(C)C | -1 | 23
COc1ccc(C(=O)N(Cc2ccco2)Cc2cc(NC(=O)c3cccs3)ccc2N(C)C)cc1 | 23 | 31
COc1ccc(NCC2(c3ccnc(-c4ccccc4Cl)c3)CC2)cn1 | 11 | 21
COc1ccccc1-n1c(SCC(=O)O)nnc1C1CC(=O)N(C)C1 (stereo unspecified) | 1 | 1
O=C1C2C3C=CC(C3)C2C(=O)N1c1ccc(O)cc1 (stereo unspecified) | 0 | 0
COc1cccc(C(CNC(=O)Nc2cc(C)on2)N2CCCC2)c1 (stereo unspecified) | -5 | -4
CN(CC1CC=CCC1)CC1CCN(CCc2ccc(F)cc2)CC1 (stereo unspecified) | 6 | 3
COc1ccc(-c2nnc3ccc(OCCNC(=O)c4ccco4)nn23)cc1 | -8 | -12
C=CCSc1nnc(NC(=O)Cn2cnc3c2c(=O)n(C)c(=O)n3C)s1 | 0 | -2
CCc1ccc(S(=O)(=O)c2cnc(SCC(=O)Nc3ccc(C(C)C)cc3)[nH]c2=O)cc1 | -4 | -9
N#CC(C#N)C=Nc1cccnc1 | -6 | -6
C[C@H](NC(=O)c1ccc(-n2nc(-c3ccc(Cl)cc3)cc2N)cc1)[C@H](O)c1ccccc1 | 1 | -1
CCOCCOc1nc(-c2ccccc2C)n(-c2ccc(NC(=O)COCc3ccccc3)cc2)n1 | -14 | -17
CC1CSc2ccccc2N1C(=O)Cc1c[nH]c2cc(F)ccc12 (stereo unspecified) | -1 | 46
CN(C)Cc1nnnn1CCn1nnnc1CN(C)C | 18 | 12
CCOC(=O)CC(=O)CSc1n[nH]c(=O)[nH]c1=O | 7&13 | 6&7
Cc1cc(C(=O)COC(=O)CC23CC4CC(CC(Br)(C4)C2)C3)c(C)n1CC1CCCO1 (stereo unspecified) | 8 | 7

Some of these compounds in order of formula weight, highest first:
SMILES | NPYLR7 agonist | NPYLR7 agonist max-min
COc1ccccc1-n1c(SCC(=O)O)nnc1C1CC(=O)N(C)C1 (stereo unspecified) | 1 | 1
CN(C)Cc1nnnn1CCn1nnnc1CN(C)C | 18 | 12
CCC(CC)NC1C=CS(=O)(=O)C1 (stereo unspecified) | 16 | -2

More records follow:
SMILES | NPYLR7 agonist | NPYLR7 agonist max-min
O=C(Nc1ccc2[nH]cc(CCN3CCN(c4cccc(C(F)(F)F)c4)CC3)c2c1)c1c(F)ccc(F)c1Cl | 2 | -1
COc1ccc(-c2cc(N)nc3[nH]ccc23)cn1 | 7 | 5
CN(C)CCNC(=S)NC1CCCCC1 | -8 | -8
COc1cccc(C(=O)NC(C(=O)NCc2ccco2)C2CCN(S(=O)(=O)c3ccc(Cl)cc3)CC2)c1 (stereo unspecified) | 0 | 1
N#CC(Sc1nnnn1CC(F)(F)F)C1CCCCC1 (stereo unspecified) | -14 | -17
CCOC(=O)CSc1cc(C)nc(NC(C)=O)n1 | 0 | -2
CN(C)CC(NC(=O)c1ccc(Br)o1)c1ccccc1 (stereo unspecified) | 7 | 6
CCOC(=O)C1(CCOc2ccccc2)CCN(C(=O)CC2=CCCCC2)CC1 | 20 | 6
O=C1CC2(CCCC2)CC(=O)N1CCc1nc2ccccc2[nH]1 | -9 | -17
Cc1nn(-c2ccccc2)c2[nH]cc(C(=O)NCc3ccccc3Cl)c(=O)c12 | -1 | 35
CN(Cc1ccc(Cl)c(Cl)c1)S(=O)(=O)c1ccc(Cl)nc1 | 5 | 0
COc1ccnc(N(C)C(=O)c2ccc(-n3cccn3)cc2)n1 | 4 | 3
Cc1ccc2nc(CSCC(=O)N3CCN(C(=O)C4CCCO4)CC3)cn2c1 (stereo unspecified) | 6 | 3
C=CCN(CC(=O)NC1CCCCC1C)S(=O)(=O)c1ccc(OC)cc1 (stereo unspecified) | -6 | -7
CC(=O)Nc1cccc(NC(=O)CSc2nc(=O)n(Cc3ccccn3)c3c2CCC3)c1 | -6 | -7
Cc1c(C(=O)NCc2cccc(Cl)c2)sc(=O)n1CC(=O)N(C)C | 15 | 10
COc1cc(Cl)cc2cc(C(=O)N3CC[C@@H](N)[C@@H](OC)C3)oc12 | 13 | 5
Cc1ccc(CN(Cc2ccccc2)C(=O)CN(CCCN2CCOCC2)C(=O)c2ccc(C(C)(C)C)cc2)o1 | 5 | 17
CCOc1cc2ncc(C#N)c(Nc3ccc(F)c(Cl)c3)c2cc1NC(=O)/C=C/CN(C)C | 0 | -1
COc1ccc(-n2c(-c3ccccc3)cc(C(=O)NCCN3CCCCC3)c2C)c(OC)c1 | -2 | 1
CSc1ccccc1C(=O)NCc1c(C)ncc2c1CCN(C(=O)c1ccccc1-n1cccn1)C2 | 19 | -1

Compound profiles (already shown). Order of screens: NPYLR7 agonist, NPYLR7 agonist max-min
Entry for COc1cccc(C(=O)NC(C(=O)NCc2ccco2)C2CCN(S(=O)(=O)c3ccc(Cl)cc3)CC2)c1 (stereo unspecified) = 0, 1
Entry for Cc1nn(-c2ccccc2)c2[nH]cc(C(=O)NCc3ccccc3Cl)c(=O)c12 = -1, 35

Source: PubChem BioAssay

Some of the compounds tested, so the mix of outcomes need not match the whole.
